# Sa helicase inh: blocks Staphylococcus aureus DNA helicase. inhibition, %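 (tested at about 80 µM)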. purified S. aureus helicase, fluorescence unwinding assay; about half of the hits fall short of the stated cut. 120,000 tested, 0.05% active;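 active = both duplicates at 50% or more, or one of them with a favoured structure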;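 also: 0% = mean of negative control wells and 100% = mean of positive control wells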
# MgrA DNA FP: S. aureus MgrA-DNA binding modulation; 84,000 tested, 0.13% active; AID 602314; fluorescence polarization; inhibition, %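 (about 10 µg/mL by stock and volumes)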;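 active = above 50% in either of two replicates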;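 also: 0% = protein plus DNA without compound and 100% = DNA alone without protein; higher means less MgrA bound to DNA so lower polarization; one replicate is shown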
# The depositor's hits bear a star; . = no result given. A portion of the library (hit frequency here may not be typical).
canonical_smiles,Sa helicase inh,MgrA DNA FP
Nc1nn(-c2ccc(Cl)cc2Cl)cc1-c1cccs1,.,-0.8
Cc1cccc(C)c1NC(=O)C1C2C=CC(C2)C1C(=O)O (stereo unspecified),2.0,3.2
COc1ccc(C(=O)OCC2CC(c3ccccc3)=NO2)cc1OC (stereo unspecified),1.0,-1.4
CC(C)N1C(=O)CC(N2CCOCC2)C1=O (stereo unspecified),9.0,-1.4
COc1ccc(CNS(=O)(=O)N(C)C)cc1,7.0,-4.3
O=S(=O)(NCc1ccc(C(F)(F)F)cc1)c1cc(Br)c(Br)s1,.,0.3
CCN1C(=O)/C(=c2\sc3n(c2=O)C(c2ccc(OC)cc2)C(C(=O)OC)=C(C)N=3)c2ccccc21 (stereo unspecified),.,0.9
O=C(c1cccc(C(F)(F)F)c1)C1CCN(C(=O)N2CCOCC2)CC1,-9.0,0.4
NNC(=O)c1ccccc1CO,.,-8.3
O=[N+]([O-])c1cccc(-c2csc(Nc3ccccc3Cl)n2)c1,.,-2.5
Cc1noc2nc(-c3cccs3)cc(C(F)(F)F)c12,-12.0,-1.5
O=C1c2ccccc2C(=O)N1CCSC1=Nc2ccccc2C2CC=NN12 (stereo unspecified),6.0,.
CC1CCCCC1NC(=O)c1ccc(/C=C2/Sc3ccccc3NC2=O)cc1 (stereo unspecified),-6.0,-1.4
Cc1ccc2nc(CCCC(=O)OC(C)C)[nH]c2c1,-19.0,.
C=C(C)CC1(CC(=C)C)CCCCN1,6.0,-1.1
Cc1ccc(CNC(=O)Cc2ccc(-n3cccc3)cc2)cc1,7.0,.
CCC(=O)N(Cc1cc2ccc(C)cc2n2nnnc12)C1CCCCC1,1.0,-1.4
O=C(CC(C(=O)O)C1CCCO1)Nc1cccc(C(F)(F)F)c1 (stereo unspecified),-3.0,.
Cc1cc(NC(=O)COC(=O)C2(c3ccc(Cl)cc3)CCCC2)no1,-1.0,.
O=C(O)/C(=C/C(=O)c1ccc(F)cc1)Nc1ccc2[nH]c(=O)[nH]c2c1,1.0,-0.6
CCOC(=O)N1CCC(NC(=O)CCn2cccc2)CC1,17.0,.
Cc1cccc(N2CCN(C(=O)CCNS(=O)(=O)c3cccc4nsnc34)CC2C)c1 (stereo unspecified),36.0,.
CCCc1cc2c(=O)c(-c3ccc4c(c3)OCCCO4)coc2cc1OC(C)C(=O)OC (stereo unspecified),.,-0.9
COC(=O)c1ccccc1NC(=O)N1CCC(CN2CCOCC2)CC1,-1.0,1.3

# The closing three entries of the part before are carried over, then new ones follow.
canonical_smiles,Sa helicase inh,MgrA DNA FP
Cc1cccc(N2CCN(C(=O)CCNS(=O)(=O)c3cccc4nsnc34)CC2C)c1 (stereo unspecified),36.0,.
CCCc1cc2c(=O)c(-c3ccc4c(c3)OCCCO4)coc2cc1OC(C)C(=O)OC (stereo unspecified),.,-0.9
COC(=O)c1ccccc1NC(=O)N1CCC(CN2CCOCC2)CC1,-1.0,1.3
CC1(C)C(=N)N(c2ccccc2)C(=O)N1c1ccccc1,8.0,0.6
O=S(=O)(c1cc(C(F)(F)F)cc(C(F)(F)F)c1)N1CCN(Cc2ccccc2)CC1,.,-2.8
CCCCNC(=O)Cc1ccc(Br)cc1,-10.0,1.9
Cc1ccc2c(c1)NC(=O)c1cc(S(=O)(=O)N3CC(C)OC(C)C3)ccc1O2 (stereo unspecified),11.0,1.1
S=c1oc(C2COc3ccccc3O2)nn1CN1CCN(C/C=C/c2ccccc2)CC1 (stereo unspecified),-18.0,.
Cc1cc(C)cc(-n2nc3c(c2NC(=O)c2cccs2)CSC3)c1,-10.0,.
Cc1ccc(N2C(=O)N(c3ccccc3)C(=N)C2=S)cc1Cl,.,-2.4
N#CCn1cc(C(=O)C(F)(F)F)c2ccccc21,-1.0,6.1
CCN(CC)CCOc1ccc(/C(=C(\Cl)c2ccccc2)c2ccccc2)cc1,.,0.6
OCCNC(=S)Nc1cccc(-c2n[nH]c(=S)o2)c1,.,1.2
Cc1sc(NC(=O)/C=C/C(=O)O)c(C#N)c1C,6.0,0.1
C=CCSc1nc2ccccc2c(=O)n1CC1CCCO1 (stereo unspecified),2.0,0.7
Cn1c(C(=O)O)cc2ccccc2c1=O,7.0,.
Clc1ccc(Nc2cc(-c3ccccc3)nc3ncnn23)cc1,.,-2.2
COC(=O)c1ccc(NC(=O)C2COc3ccccc3O2)cc1 (stereo unspecified),.,-2.6
O=c1n(Cc2ccc(Br)cc2)nnn1-c1ccccc1,-13.0,.
COc1ccc(/C=C(/NC(=O)c2ccccc2)C(=O)N2CC(C)OC(C)C2)cc1 (stereo unspecified),7.0,-0.2
Cn1ccnc1-c1nc2ccccc2[nH]c1=O,-7.0,.
O=C1CSC(c2ccc(Cl)cc2)N1CCN1C(=O)CSC1c1ccc(Cl)cc1 (stereo unspecified),.,-0.6
CCOc1cc(C2C(C(=O)N3CCOCC3)=C(C)NC3=C2C(=O)CC(C)(C)C3)cc(Br)c1OCC (stereo unspecified),16.0,.
Cc1noc(C)c1CNc1ccccc1,2.0,.
O=C(O)c1cccc(-n2ncc(Cl)c(Cl)c2=O)c1,4.0,20.9
Brc1ccc(-c2ccnc3ncnn23)cc1,.,-0.2
Cc1cc(C(=O)COn2nnc3ccc(Cl)cc32)c(C)n1Cc1cccs1,9.0,.
CCC(C)NC(=O)c1ccccc1NC(=O)Nc1ccccc1 (stereo unspecified),1.0,2.2
CSC(=NC#N)N1CCC(C(=O)c2ccccc2)CC1,.,-0.8
Cc1ccc(Cn2c(=O)cc(C(=O)NCc3cccs3)c3ccccc32)cc1,17.0,1.4
COC(=O)C(C)Oc1nc(C)c(Br)c(OC)n1 (stereo unspecified),12.0,3.9
CCSc1nnc(COc2ccccc2)n1CC,-1.0,-1.1
OCCN(c1ccccc1)c1ncnc2onc(-c3ccc(F)cc3)c12,-15.0,.
O=C(NC1CC(=O)N(c2ccc3c(c2)OCCO3)C1)c1ccc2ccccc2c1 (stereo unspecified),3.0,.
Cc1oc(-c2ccccc2)cc1C(=O)O,.,0.6
CSc1nc2ccc(NC(=O)CNC(=O)c3cccs3)cc2s1,11.0,.
CC(C)(C)n1nc(-c2ccc(Cl)cc2)c2c(N)ncnc21,.,1.4
O=c1[nH]nc(C(F)(F)F)c2nnn(Cc3ccccc3Cl)c12,20.0,.
CN(C)c1ccc(C2N(C(=O)C(F)(F)F)CCN2S(=O)(=O)c2ccccc2)cc1 (stereo unspecified),25.0,.

# Record cards, as listed above.
# `CC(C)(C)n1nc(-c2ccc(Cl)cc2)c2c(N)ncnc21` across the screens: Sa helicase inh = .; MgrA DNA FP = 1.4
# `O=c1[nH]nc(C(F)(F)F)c2nnn(Cc3ccccc3Cl)c12` across the screens: Sa helicase inh = 20.0; MgrA DNA FP = .

# Next section
canonical_smiles,Sa helicase inh,MgrA DNA FP
O=C(CN1CCCCC1)Nc1ccccc1,13.0,1.0
CCOC(=O)c1sc(NC(=O)CC)c(C#N)c1C,10.0,.
O=C(Nc1ccc(Br)cc1)C(Cc1ccccc1)NS(=O)(=O)c1cccs1 (stereo unspecified),9.0,2.0
C/C(O)=C(\C#N)P(C)(=O)OC(C)C (stereo unspecified),-9.0,6.5
CCCn1c(=O)n(-c2ccccc2)c(=O)c2c3c(sc21)CN(C(C)=O)CC3,-11.0,.
Cc1[nH]c2ccc(C(=O)OCC#N)cc2c1C,-9.0,.
CC1Cc2ccccc2N1S(=O)(=O)c1cccc(C(=O)N2CC(=O)Nc3ccccc32)c1 (stereo unspecified),-10.0,.
Cc1cc(S(=O)(=O)NCc2ccc3c(c2)CCO3)c(C)s1,.,1.8
Cc1noc(C)c1CSc1ncccc1C(=O)N(C)Cc1c(F)cccc1Cl,-10.0,.
Cc1nc2c(o1)NC(N)=C(C#N)C2c1cn[nH]c1C (stereo unspecified),8.0,-1.1
O=c1[nH]c(-c2ccc(Cl)cc2)nc2c1CSC2,.,-2.4
CN1C2CCC1CC(N(CCc1c[nH]c3ccccc13)C(=O)c1ccc(Cl)cc1)C2 (stereo unspecified),.,-1.4

# In another format: entries from further up.
Sa helicase inh | MgrA DNA FP | Structure
13.0 | 1.0 | O=C(CN1CCCCC1)Nc1ccccc1
10.0 | . | CCOC(=O)c1sc(NC(=O)CC)c(C#N)c1C
9.0 | 2.0 | O=C(Nc1ccc(Br)cc1)C(Cc1ccccc1)NS(=O)(=O)c1cccs1 (stereo unspecified)
-9.0 | 6.5 | C/C(O)=C(\C#N)P(C)(=O)OC(C)C (stereo unspecified)
-11.0 | . | CCCn1c(=O)n(-c2ccccc2)c(=O)c2c3c(sc21)CN(C(C)=O)CC3
-9.0 | . | Cc1[nH]c2ccc(C(=O)OCC#N)cc2c1C

# Continued.
canonical_smiles,Sa helicase inh,MgrA DNA FP
N#CC(=S)CC(=O)c1ccc(Cl)cc1,.,-4.8
CN(C(=O)CSc1nc2ncccc2o1)c1ccccc1,5.0,.
CS(=O)(=O)N1CCN(C(=O)CCCC(=O)O)CC1,-4.0,4.3
COC(=O)CSc1nnc2c(n1)[nH]c1ccccc12,10.0,.
COC(C(=O)Nc1ccc2c(c1)OCCO2)c1ccccc1 (stereo unspecified),7.0,-1.7
C=CCOc1ccc2c(c1)c(=O)cc(C(=O)O)n2CC,.,-4.0
CC1CCN(S(=O)(=O)Cc2ccccc2)CC1,13.0,-1.1
CC(C)C(NC(=O)c1ccc2c(=O)n3c(nc2c1)CCC3)c1ccc2c(c1)OCCCO2 (stereo unspecified),9.0,.
Cn1c(-c2cccnc2)n[nH]c1=S,14.0,.
O=C(CSCc1ccco1)NC1CCCC1,12.0,1.0
C/C(=C\c1ccccc1)C(=O)NCCCn1ccnc1,7.0,1.4
CCOC(=O)CSCCOc1ccc(C=C2C(=O)N(C)C(=O)N(C)C2=O)cc1OC,.,-0.4
CN(C)CCSc1nc(O)c(-c2ccccc2)c(=O)[nH]1,5.0,.
Cc1ccc(/C=C(\C#N)c2cccs2)cc1,.,-1.9
O=C(CSc1nncn1-c1ccc(C(F)(F)F)cc1)c1cc2ccccc2o1,.,-1.1
Cc1nc2ccccc2c(=O)n1-c1cccc(NC(=O)c2ccc3c(c2)OCO3)c1,13.0,.
CN1C(=S)SC(c2ccccc2)N(C)C1c1ccccc1 (stereo unspecified),15.0,-0.3
CC1=CC(C)=NC2Nc3c(C)cc(C)cc3C(=N)C12 (stereo unspecified),66.0*,27.5
O=C1c2ccccc2-c2onc3ccc(Oc4c(F)c(F)c(F)c(F)c4F)c1c23,9.0,4.6
CC(C)c1cc(=O)[nH]c(SCC(=O)O)n1,8.0,-6.0
CC(C)N(C(=O)CSc1nnnn1Cc1ccccc1)C(C)C,-3.0,-1.7
COC(=O)c1ccc2nsnc2c1,11.0,3.0
O=C(CCCc1ccccc1)N1CCCCCCC1,-3.0,-0.6
Cc1nnc(SCc2ccc(C(=O)N3CCOCC3)cc2)s1,-2.0,0.0
Cc1ccccc1NC(=O)CN1CCCC1,4.0,-5.4
CC1CN(c2nc(-c3cccs3)cc(C(F)(F)F)c2C#N)CC(C)O1 (stereo unspecified),.,-0.3
CCOC(=O)c1c(NC(=O)CCN2C(=O)/C(=C/c3ccc(OC)cc3)SC2=S)sc2c1CCCC2,.,2.3
O=C1CC(c2ccccc2)SC(c2ccccc2)C1 (stereo unspecified),-17.0,.
Cc1cc(C)c(Nc2ccc(Nc3ccc([N+](=O)[O-])cc3)c3c2C(=O)c2ccccc2C3=O)c(C)c1,.,0.6
CC(C)(C)c1ccn[nH]1,.,-1.1
Cc1cc(C(=O)CSc2nc3ccccc3c(=O)n2CCO)c(C)n1C(C)C,-8.0,.
CC(=O)N/C(=C\c1cc(F)cc(F)c1)C(=O)O,.,-4.7
Nc1nc2sc3c(c2c(=O)s1)CCCC3,2.0,.
COCC(C)NC(=O)C1=CC(c2ccc(C)cc2)=NS(=O)(=O)N1C (stereo unspecified),-9.0,.
CCN(CC)S(=O)(=O)c1ccc(C(=O)Nc2ccc3c(c2)OC(C)(C)O3)cc1,5.0,0.6
COC(=O)CC(C(=O)Nc1ccc(C)cc1Br)N1CCN(C)CC1 (stereo unspecified),8.0,.
CC(C)OCc1nc2ccccc2n1C,-26.0,.
Cc1cc(C)c(C)c(S(=O)(=O)N2CCN(c3ncnc4sc5c(c34)CCCC5)CC2)c1C,14.0,1.8
Cc1c(C#N)sc2ccccc12,-34.0,.
O=C(CSc1n[nH]c(-c2ccccc2Cl)n1)NC1CCCCC1,9.0,.
COC(=O)C1=C(N)Oc2c(oc(CO)cc2=O)C1c1cccc(OC)c1 (stereo unspecified),14.0,.
Cn1nc(C2CC2)cc1NC(=O)Nc1ccc(OC(F)(F)F)cc1,19.0,.
COc1ccc(-c2nnc(NC(=O)/C=C/c3ccccc3)o2)cc1,3.0,.
CC1CC(C)CN(S(=O)(=O)c2ccc(NC(=O)C(C)N3C(=O)C4CC=CCC4C3=O)cc2)C1 (stereo unspecified),-3.0,.
COC(=O)C(C)Sc1nc2cc(Cl)ccc2s1 (stereo unspecified),-7.0,.
Cc1cc(C)n2c(SC(C)C(=O)NC3(C#N)CCCCC3)nnc2n1 (stereo unspecified),-5.0,.
CNS(=O)(=O)c1ccc2c(c1)n(C)c(=O)n2C,18.0,-1.9
CCN1C(=O)N/C(=C/c2ccc(OCc3ccc(C(=O)O)cc3)cc2)C1=O,9.0,-0.3
Cc1ccc(NC(=O)/C=C2\NC(=O)CS2)cc1,-7.0,.
C=CCSc1nc2c(cnn2-c2ccc(Cl)cc2)c(=O)[nH]1,10.0,-1.0
CC(=O)OCC(=O)c1ccc2c(c1)CCN2C(C)=O,16.0,-1.3
CCCN(Cc1nnc(-c2ccco2)o1)C(=O)CSc1nnc(-c2ccc(Cl)cc2)o1,-6.0,.
